# VDR inhibitor = inhibitors of human vitamin D receptor; Potency, µM, for the others: max response, negative = inhibition, most hits filed as inhibitors; P11473; VDR-SRC2-3 peptide fluorescence polarization, 2 h; 400,000 tested, 0.93% active; active = well fitted inhibition curve with a large enough effect; inconclusive = small, poorly fitted or top-dose-only effect, or another doubt; inactive = no such curve, though single readings can be large or run the other way; also: series mostly up to about 120 µM
# Target sequence (P11473 whole entry, looked up): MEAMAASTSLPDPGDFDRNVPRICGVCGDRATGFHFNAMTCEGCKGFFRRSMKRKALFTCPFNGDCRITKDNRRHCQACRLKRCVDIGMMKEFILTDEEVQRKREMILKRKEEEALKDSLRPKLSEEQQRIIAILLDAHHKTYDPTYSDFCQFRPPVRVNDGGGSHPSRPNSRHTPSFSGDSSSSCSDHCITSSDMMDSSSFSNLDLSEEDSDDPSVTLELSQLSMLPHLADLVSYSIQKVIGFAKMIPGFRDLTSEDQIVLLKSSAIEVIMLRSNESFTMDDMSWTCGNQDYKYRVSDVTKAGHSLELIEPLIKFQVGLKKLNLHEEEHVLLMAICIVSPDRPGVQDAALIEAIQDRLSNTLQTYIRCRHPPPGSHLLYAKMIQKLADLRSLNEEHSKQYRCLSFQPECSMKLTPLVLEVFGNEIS
#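 The screen uses fluorescence polarization to detect compounds that interfere with recruitment of the SRC2-3 coactivator peptide to VDR; plates are read after 2 h at room temperature.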
# * = called active by the depositor; ? = inconclusive; & = joins results of further samples. % is scaled to controls: 0 for no effect and ±100 for the full control effect; potency is read from the fitted curve at half-maximal effect.
SMILES,VDR inhibitor
CCCCOc1ccc(/C=C(\C(=O)O)c2ccc(S(=O)(=O)N3CCCC3)s2)cc1,-5%
CC1CCCN(C(=O)CSc2nnc(-c3ccc(O)cc3)o2)C1 (stereo not drawn),15%
O=C(NCCc1ccccc1)c1c(F)cccc1F,3%
Cc1cc(/C=N/Nc2ccc([N+](=O)[O-])cn2)c(C)n1-c1cccc(C(=O)O)c1,-9%
COc1cccc(CN(C)S(=O)(=O)c2cccs2)c1,-2%
COc1ccc(C)cc1NC(=O)Cn1c(=O)oc2cc(S(=O)(=O)N3CCCCCC3)ccc21,15%
CC(C)CCOC(=O)C[N+](C)(C)CCOC1CC2CCC1(C)C2(C)C (stereo not drawn),-7%
CNC(=O)c1ccsc1NC(=O)CCS(=O)(=O)c1ccc(F)cc1,-29%
CCCc1[nH]nc2c1C(c1ccc(Br)s1)C(C#N)=C(N)O2 (stereo not drawn),?
O=C(CSc1nnnn1-c1ccccc1)NCc1ccco1,-29%
Cc1ccc2cccc(NC(=S)NC(=O)c3ccccc3)c2n1,2%
CO/N=C/C(=N\Nc1ccc(C)cc1)C(=O)c1ccc(OC)cc1,5%
O=S(=O)(NCC1CCN(S(=O)(=O)c2ccccc2)CC1)c1ccccc1,15%
c1ccc(-c2cccs2)nc1,-7%
Cc1nc2cnc(Oc3cccc(Cl)c3)nc2n(C2CC2)c1=O,-20%
CCCCC[C@H](O)/C=C/C=C\C/C=C\C/C=C\CCCC(=O)O,-2%&14%
O=C(NC(=S)NCCN1CCOCC1)c1ccccc1Br,-14%
S=C(NCCc1ccncc1)Nc1ccccc1,-10%
O=C(CCC(=O)NNC(=O)c1ccc([N+](=O)[O-])cc1)NCc1ccccc1,1%
COCCn1nnnc1C(c1ccc(O)c(OC)c1)N1CCc2ccccc2C1 (stereo not drawn),-20%
OCCC1CN(Cc2cccn2-c2ncccn2)CCN1CCc1ccccc1 (stereo not drawn),9%
COC(=O)COc1ccc(C2Nc3c(Cl)ccc(C(=O)O)c3C3C=CCC32)cc1 (stereo not drawn),?
Cc1ccc(-c2c[n+](=O)c3c(n2[O-])CCC3)cc1,-13%
Cc1cc(=O)[nH]c2c1c(-c1ccccc1)nn2C,-17%
CCOC(=O)C1=C(COC(=O)c2cc(OC)c(OC)c(OC)c2)NC(=O)NC1C (stereo not drawn),5%
CN(CC(=O)Nc1c(Cl)cccc1Cl)C(=O)c1cc2ccccc2cc1O,12%
CCC(C)(C)n1nnnc1C(c1ccncc1)N1CCC(Cc2ccccc2)CC1 (stereo not drawn),-10%
O=C(Nc1ccccc1C(F)(F)F)c1ccsc1,4%
Cc1cc(=O)oc(C)c1C(=O)NCCC(C)C,-13%
C[C@H]1O[C@@H](O[C@H]2CC[C@@]3(C)C(CC[C@]4(C)C3C=CC3=C5CC(C)(C)CC[C@]5(CO)[C@H](O)C[C@]34C)[C@]2(C)CO)[C@H](O)[C@@H](O[C@@H]2O[C@H](CO)[C@@H](O)[C@H](O)[C@H]2O)[C@H]1O (stereo partly drawn),4%
COc1ccccc1OCC(=O)NCCNC(=O)COc1ccccc1OC,1%
O=C(CCc1ccccc1)NC1CCCc2ccccc21 (stereo not drawn),-14%
Cc1cc(C)c(C)c(S(=O)(=O)Nc2ccc(C(=O)N3CCCC3)cc2)c1C,-9%
Cc1nnc2n(C)c(=O)c3c4c(sc3n12)COC(C)(C)C4,-3%
O=C(c1cc(C(=O)N2CCOCC2)c2nc3ccccc3n2c1)c1cc(Cl)cc(Cl)c1O,-31%
Cc1ccccc1C(=O)O,-12%
O=C(Nc1ccnn1C1CCN(Cc2cc(Cl)ccc2O)CC1)c1cccnc1,0%
CCOC(=O)N1CCC(N2CCCC(C(=O)c3cccc(OC)c3)C2)CC1 (stereo not drawn),8%
Cc1cccc(N/C(N)=N/c2nc(C)c(Cc3ccccc3)c(=O)[nH]2)c1,-22%
NC(=O)C1CCN(C(=O)CN2CCCc3ccccc32)CC1,-1%
COc1ccc(OC)c(C2/C(=C(/O)c3ccccc3)C(=O)C(=O)N2Cc2ccco2)c1 (stereo not drawn),-10%
Cc1ccc(C)n1-n1c(C)nc2scc(-c3ccccc3)c2c1=O,-7%
COc1ccc(-n2ccnc2SCC(=O)Nc2ccc(F)cc2F)cc1,0%
Cc1ccc(NC(=O)C2CCN(S(=O)(=O)c3ccc4c(c3)CCCC(=O)N4)CC2)cc1N(C)C,-2%&2%
O=c1cc(CSc2nnc(COc3ccccc3)o2)c2ccccc2[nH]1,-11%
C[C@@]12C(=O)Nc3ccc(Br)cc3C(=O)N1[C@H]1c3ccccc3OC[C@@H]1[C@@H]2c1ccccc1,3%
Cc1sc(N(C(=O)CCc2ccccc2)c2ccc(C(=O)O)cc2)nc1-c1ccccc1,-24%
CCCCN(C)C(=O)c1ccc2c(c1)NC(=O)C(CC(C)C)N2 (stereo not drawn),-4%
Cc1cc(C)cc(NC(=O)COC(=O)c2cc(=O)[nH]c(=O)[nH]2)c1,1%
Cc1ccc2c(c1)c1c(c(=O)n(-c3ccccc3C)c(=O)n1CC(=O)c1ccc(Cl)cc1)n2C,9%
CCc1ccc(-c2nc(CSCC(=O)N3CCN(c4ccc(F)cc4)CC3)c(C)o2)cc1,-12%
COc1cc(OC)c(NS(=O)(=O)c2ccc3c(c2)NC(=O)CCS3)cc1Cl,2%
Cc1ccc(C(=O)N2CCc3cc(CNC(=O)CSc4ccccc4)ccc32)cc1,7%
CC(=O)N(C(C)=O)c1nc(-c2ccccc2)cn1/N=C/c1ccccc1,10%
COc1ccc(C(C(=O)NC(C)(C)C)N(C(=O)CNC(=O)c2cccs2)c2ccc(C(C)C)cc2)cc1OC (stereo not drawn),0%
COc1ccc(NC(=O)Cn2nnc(C(=O)NCc3ccc4c(c3)OCO4)c2N)cc1,-18%&-11%
O=S(=O)(NC1CCCCC1Oc1ccccc1)c1ccccc1 (stereo not drawn),12%
CCOC(=O)C1=C(c2ccccc2)Nc2ncnn2C1c1cc(OC)ccc1OC (stereo not drawn),-4%
CCn1c(SCc2ccc(C)cc2)nnc1-c1nn(-c2ccccc2)ccc1=O,-6%
CCOc1cc2ccccc2cc1C(=O)Nc1ccccn1,-5%
# Next section
SMILES,VDR inhibitor
COc1ccc(C(=O)CN(C(=O)c2ccc(Cl)cc2)N2C(=O)C3CCCCC3C2=O)cc1 (stereo not drawn),9%
Cc1cc(=O)[nH]c(-c2ccc(C(F)(F)F)cc2)n1,-9%
Cc1cccc(OCC(=O)NCCNC(=O)c2cnccn2)c1,1%
O=C(NCC1CCCO1)C1CCCN1C(=O)Nc1ccccc1[N+](=O)[O-] (stereo not drawn),-3%
COc1ccc(Cl)cc1-n1c(C)ccc1C,3%
CC(C)(O)C#Cc1ccc(C(=O)N2CCN(c3ccccc3)CC2)cc1,7%
COc1ccccc1NC(=O)CSc1nnc(-c2ccco2)n1Cc1ccco1,6%
COc1ccc2c(c1)c1c(c(=O)n(-c3ccccc3C)c(=O)n1CC(=O)NCc1ccc(C)cc1)n2C,13%
CC(NC(=O)CCOc1ccccc1)c1ccccc1 (stereo not drawn),-13%
Cc1ccc(C(O)c2cccnc2)o1 (stereo not drawn),1%
CCCC(C)NC(=O)CN(c1ccc2c(c1)OCCO2)S(=O)(=O)c1ccccc1 (stereo not drawn),?
CC(C)(C)OC(=O)N1CCC[C@H]1C(O)(c1ccccc1)c1ccccc1,4%
COc1ccc(/C=C/c2c([N+](=O)[O-])c(=O)n(C)c(=O)n2C)c(OC)c1,-14%
CC(C)C(=O)Nc1ncc(Cc2ccccc2Cl)s1,11%
Cc1ccc(-c2cc(C(=O)NCCCn3ccnc3)c3ccccc3n2)s1,4%
O=S(=O)(Nc1ccc(Cl)cc1)c1cccc(S(=O)(=O)c2ccc(Cl)c(Cl)c2)c1,3%
CC(=O)Nc1ccc2nc(NC(=O)CS(=O)(=O)c3ccc(C)cc3)sc2c1,0%
COc1cccc(N2CC(NC(=O)c3ccc4c(c3)OCO4)CC2=O)c1 (stereo not drawn),-7%
O=C(c1ccccc1)C1CCc2occc2C1=O (stereo not drawn),2%
S=C(c1ccc(N2CCCC2)cc1)N1CCCCC1,-20%
Cc1cc(C)c(C)c(S(=O)(=O)N(C)CCc2ccccn2)c1C,-6%
COc1ccc(C2=CC(c3ccc(C)cc3)n3nnnc3N2)cc1 (stereo not drawn),-17%
Cc1cccc(OCC(=O)Nc2cccc(-c3nc4ccccc4s3)c2)c1,-10%
CCCC1=NN(C(=O)Cc2ccc(OC)c(OC)c2)C(O)(C(F)(F)F)C1 (stereo not drawn),-15%
N/C(=N\OC(=O)c1ccccc1Cl)c1ccccn1,8%
N#Cc1cccc(S(=O)(=O)NNC(=O)C23CC4CC(CC(C4)C2)C3)c1,-14%
O=C1CC(C(=O)Nc2ccc(F)cc2)n2cnnc2N1 (stereo not drawn),10%
CCOC(=O)c1cn(CC(=O)Nc2ccc(C(C)C)cc2)nn1,-4%
Cc1cccn2c(=O)c3cc(C(=O)NC(C)C)n(C)c3nc12,7%
COC(=O)Nc1nc2ccc(SC(C)C)cc2[nH]1,0%&0%
CCN(CC)c1ccc(/C=N/Nc2nc(C)cc(=O)[nH]2)cc1,-4%
COc1ccc(C(=O)Nc2cc(OC)c(Cl)cc2Cl)cc1,5%
CC(=O)Nc1ccc(-n2c(C)ccc2C)cc1,6%
CCc1ccc(OCC(=O)NNC(=O)c2cnccn2)c(Br)c1,12%
COc1cc(CCC(=O)OCC(=O)NCCc2ccc(S(N)(=O)=O)cc2)cc(OC)c1OC,-12%
O=C(CC1C(=O)NCCN1Cc1c(F)cccc1Cl)NCCC1=CCCCC1 (stereo not drawn),-8%
NC(=O)/C(=C\c1ccncc1)c1cccc2ccccc12,-22%
CCOc1ccccc1CNC(=O)c1ccc2c(c1)N(Cc1ccc(C)cc1)CCS2,-8%
Cc1cccc(NC(=O)C2C(C(=O)O)C3C=CC2C32CC2)c1C (stereo not drawn),-2%
O=C(CSc1ccc(Cl)cc1)NC1CCCc2ccccc21 (stereo not drawn),-8%
O=C(Nc1ccc(C(=O)N2CCCCC2)cc1)c1ccc(Br)cc1,-2%
COc1ccc(CNC(=O)c2sc(=S)n(-c3ccccc3)c2N)cc1,2%
CC1CCCCN1S(=O)(=O)c1ccc2c(c1)C(C)(C)C(=O)N2C (stereo not drawn),-10%
CNC(=S)N/N=C/c1ccc(-c2ccc(C(=O)O)cc2)o1,-17%
C[C@@H]1C=C[C@](Cc2ccccc2)(C(=O)NCCc2c[nH]c3ccccc23)N1C(=O)c1ccccc1,7%

# In another format: results already given
structure	VDR inhibitor
COc1cc(CCC(=O)OCC(=O)NCCc2ccc(S(N)(=O)=O)cc2)cc(OC)c1OC	-12%
O=C(CC1C(=O)NCCN1Cc1c(F)cccc1Cl)NCCC1=CCCCC1 (stereo not drawn)	-8%

# The listing continues:
SMILES,VDR inhibitor
CC12CCC(C(=O)O)(c3nc4cc([N+](=O)[O-])ccc4nc31)C2(C)C (stereo not drawn),-27%
O=C1[C@@H]2Cc3c([nH]c4ccccc34)C(c3ccccc3)N2C(=O)CN1C1CC1 (stereo partly drawn),7%
O=C1CN(C(=O)COC(=O)c2ccccc2NC(=O)c2ccco2)c2ccccc2N1,8%
CCOC(=O)c1ccc(N2C(=O)c3[nH]nc(-c4ccc(C)cc4)c3C2c2ccc(O)c(OCC)c2)cc1 (stereo not drawn),-24%
CC(C)CC(=O)N1CCC(N(CCc2ccccc2)Cc2ccccc2)CC1,-18%
COc1ccccc1N(O)C1CC(=O)N(c2ccc(Br)cc2)C1=O (stereo not drawn),50µM*
CC(=O)N1c2ccc(S(=O)(=O)N3CCOCC3)cc2CC1C (stereo not drawn),10%
CC1CCn2c(nc3cc(C(=O)NCCc4ccccc4)ccc32)C1 (stereo not drawn),7%
Cc1ccc(C)c(S(=O)(=O)N2CCCC2CNC(=O)c2ccc([N+](=O)[O-])cc2)c1 (stereo not drawn),-12%
Cc1cc(OCC(=O)OCC(=O)N(C)c2c(N)n(Cc3ccccc3)c(=O)[nH]c2=O)ccc1Cl,-7%
O=c1cc(CO)oc(CN2CCN(c3cccc(C(F)(F)F)c3)CC2)c1O,4%
Cc1cc(C)c2c(c1)/C(=N/NC(=S)Nc1ccc(F)cc1)CCC2,1%
COc1ccc(C2(C(=O)Nc3ccc(C)c(C)c3)CCOCC2)cc1,0%
CCOc1ccc2nc(NC(=O)c3c([N+](=O)[O-])cnn3CC)sc2c1,7%
COC(=O)NCc1ccc2c(c1)OCO2,-2%
CCc1ccccc1NNC(=O)c1snnc1C,3%

# In the list so far, these have a Cl atom:
SMILES,VDR inhibitor
Cc1nc2cnc(Oc3cccc(Cl)c3)nc2n(C2CC2)c1=O,-20%
COC(=O)COc1ccc(C2Nc3c(Cl)ccc(C(=O)O)c3C3C=CCC32)cc1 (stereo not drawn),?
CN(CC(=O)Nc1c(Cl)cccc1Cl)C(=O)c1cc2ccccc2cc1O,12%
O=C(c1cc(C(=O)N2CCOCC2)c2nc3ccccc3n2c1)c1cc(Cl)cc(Cl)c1O,-31%
O=C(Nc1ccnn1C1CCN(Cc2cc(Cl)ccc2O)CC1)c1cccnc1,0%
Cc1ccc2c(c1)c1c(c(=O)n(-c3ccccc3C)c(=O)n1CC(=O)c1ccc(Cl)cc1)n2C,9%
COc1cc(OC)c(NS(=O)(=O)c2ccc3c(c2)NC(=O)CCS3)cc1Cl,2%
COc1ccc(C(=O)CN(C(=O)c2ccc(Cl)cc2)N2C(=O)C3CCCCC3C2=O)cc1 (stereo not drawn),9%
COc1ccc(Cl)cc1-n1c(C)ccc1C,3%
CC(C)C(=O)Nc1ncc(Cc2ccccc2Cl)s1,11%
O=S(=O)(Nc1ccc(Cl)cc1)c1cccc(S(=O)(=O)c2ccc(Cl)c(Cl)c2)c1,3%
N/C(=N\OC(=O)c1ccccc1Cl)c1ccccn1,8%
COc1ccc(C(=O)Nc2cc(OC)c(Cl)cc2Cl)cc1,5%
O=C(CC1C(=O)NCCN1Cc1c(F)cccc1Cl)NCCC1=CCCCC1 (stereo not drawn),-8%
O=C(CSc1ccc(Cl)cc1)NC1CCCc2ccccc21 (stereo not drawn),-8%
Cc1cc(OCC(=O)OCC(=O)N(C)c2c(N)n(Cc3ccccc3)c(=O)[nH]c2=O)ccc1Cl,-7%

# Source: PubChem BioAssay

# An excerpt (hit frequency here may not be typical).
